Assay outcomes as filed in PubChem.
AmpC nodet inh: AmpC beta-lactamase inhibition, detergent-free assay. P00811. AmpC nitrocefin hydrolysis, absorbance 480 nm, no detergent; potencies from a single point are estimates. Potency, µM (series often up to 28.7 µM), without a hit: at the top dose activity change, negative = inhibition. 1.8% of 71,000 active. AID 585; active = falling curve, for most hits resting on a single point; inconclusive = weak or doubtful change; inactive = flat or rising curve; note: % of control where 0% means no effect; about half of the hits show no inhibition at the top dose; a quarter of the inactives give rising signals
Target sequence (P00811 whole entry, looked up): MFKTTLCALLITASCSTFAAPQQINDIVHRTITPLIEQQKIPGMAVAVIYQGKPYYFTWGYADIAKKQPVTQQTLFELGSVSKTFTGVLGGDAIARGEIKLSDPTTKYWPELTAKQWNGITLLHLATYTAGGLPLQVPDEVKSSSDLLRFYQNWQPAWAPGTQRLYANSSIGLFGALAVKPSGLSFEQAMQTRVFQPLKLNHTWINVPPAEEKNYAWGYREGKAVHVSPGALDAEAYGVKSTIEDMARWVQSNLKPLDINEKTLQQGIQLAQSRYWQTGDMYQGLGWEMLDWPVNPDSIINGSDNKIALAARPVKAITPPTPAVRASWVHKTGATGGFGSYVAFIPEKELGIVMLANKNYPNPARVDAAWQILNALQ
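AmpC, 20 mM phosphate pH 7.0; 15 min cpd preinc, RT; start with nitrocefin (800 uM stock); A480 kinetic read, 20 s intervals, 4 min. No-enzyme wells = negative control.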
Numbers without * were called inactive; ? = inconclusive; & = joins results of further samples; [ ] = dose if it differs, or a comment. Potency is the fitted concentration of half-maximal effect.

A first look:
SMILES	AmpC nodet inh
COc1ccc(N2CSC3=C(C#N)C(c4cccs4)CC(=O)N3C2)cc1 (centres undefined)	-22%
CC(=O)Nc1ccc(OC(=O)N(C)C)cc1	-6%
CCN(CC)S(=O)(=O)c1ccc(Cl)c(C(=O)NCC2CCCO2)c1 (centres undefined)	-4%
CC(C)c1ccc2oc(-c3ccc(NC(=O)c4ncn[nH]4)cc3)nc2c1	-16%
COC(=O)c1ccc(CSc2nnc(Nc3ccccc3OC)s2)o1	-5%
COc1ccc(C(=O)Nc2ncc3c(n2)CC(c2ccco2)CC3=O)cc1 (centres undefined)	8%
CCn1c(CCC(=O)Nc2cc(F)ccc2C)nc2cc(S(=O)(=O)N(C)C)ccc21	79%
CCCc1ccc(S(=O)(=O)NCCc2ccncc2)cc1	14%
COc1ccc(N2CCN(C(=O)CN(c3cccc(Br)c3)S(C)(=O)=O)CC2)cc1	100%
COc1cccc(CNC(=O)C2CCCN(c3nn4c(=O)cc(C)nc4s3)C2)c1 (centres undefined)	3%
C=CCN1CCN(C(c2ccccc2)c2nnnn2CCC(C)C)CC1 (centres undefined)	30%
O=c1[nH]c(=O)c2nc3ccccc3nc2[nH]1	0%
O=C(Nc1cccnc1)C1(c2ccccc2)CCCC1	13%
COCCn1c(=O)c(-c2ccc(Cl)cc2)nc2cnc(Oc3cccc(Cl)c3)nc21	-2%
Cc1nc2cnc(Nc3ccccc3)nc2n(C)c1=O	22%
CN(C)C(=O)c1ccccc1-c1ccccc1	7%
COC(=O)Cn1c(=NC(=O)CSC(C)=O)sc2ccccc21	21%
N#CC1=C2SCC(O)(c3ccccc3)N2C(=O)CC1c1cccs1 (centres undefined)	-16%
Cc1cc(C(=O)OCC(=O)N2CCOCC2)c2ccccc2n1	-8%
COC(=O)COC(=O)c1ccc(O)cc1	1%
CCCCn1c(NCc2ccccn2)nc2ccccc21	17%
O=C(CSc1nnc(CN2CCOCC2)n1-c1ccc(Cl)cc1)Nc1cc(Cl)ccc1O	102%
CCN1C(=O)c2cccc3cccc1c23	-3%
Cc1ccc(C)c(NC(=O)C2CC(Cl)=CCC2C(=O)O)c1 (centres undefined)	-1%
CSC(=NC1CCCCC1)NS(=O)(=O)c1ccccc1	2%

The whole of this part, repeating the preview:
SMILES	AmpC nodet inh
COc1ccc(N2CSC3=C(C#N)C(c4cccs4)CC(=O)N3C2)cc1 (centres undefined)	-22%
CC(=O)Nc1ccc(OC(=O)N(C)C)cc1	-6%
CCN(CC)S(=O)(=O)c1ccc(Cl)c(C(=O)NCC2CCCO2)c1 (centres undefined)	-4%
CC(C)c1ccc2oc(-c3ccc(NC(=O)c4ncn[nH]4)cc3)nc2c1	-16%
COC(=O)c1ccc(CSc2nnc(Nc3ccccc3OC)s2)o1	-5%
COc1ccc(C(=O)Nc2ncc3c(n2)CC(c2ccco2)CC3=O)cc1 (centres undefined)	8%
CCn1c(CCC(=O)Nc2cc(F)ccc2C)nc2cc(S(=O)(=O)N(C)C)ccc21	79%
CCCc1ccc(S(=O)(=O)NCCc2ccncc2)cc1	14%
COc1ccc(N2CCN(C(=O)CN(c3cccc(Br)c3)S(C)(=O)=O)CC2)cc1	100%
COc1cccc(CNC(=O)C2CCCN(c3nn4c(=O)cc(C)nc4s3)C2)c1 (centres undefined)	3%
C=CCN1CCN(C(c2ccccc2)c2nnnn2CCC(C)C)CC1 (centres undefined)	30%
O=c1[nH]c(=O)c2nc3ccccc3nc2[nH]1	0%
O=C(Nc1cccnc1)C1(c2ccccc2)CCCC1	13%
COCCn1c(=O)c(-c2ccc(Cl)cc2)nc2cnc(Oc3cccc(Cl)c3)nc21	-2%
Cc1nc2cnc(Nc3ccccc3)nc2n(C)c1=O	22%
CN(C)C(=O)c1ccccc1-c1ccccc1	7%
COC(=O)Cn1c(=NC(=O)CSC(C)=O)sc2ccccc21	21%
N#CC1=C2SCC(O)(c3ccccc3)N2C(=O)CC1c1cccs1 (centres undefined)	-16%
Cc1cc(C(=O)OCC(=O)N2CCOCC2)c2ccccc2n1	-8%
COC(=O)COC(=O)c1ccc(O)cc1	1%
CCCCn1c(NCc2ccccn2)nc2ccccc21	17%
O=C(CSc1nnc(CN2CCOCC2)n1-c1ccc(Cl)cc1)Nc1cc(Cl)ccc1O	102%
CCN1C(=O)c2cccc3cccc1c23	-3%
Cc1ccc(C)c(NC(=O)C2CC(Cl)=CCC2C(=O)O)c1 (centres undefined)	-1%
CSC(=NC1CCCCC1)NS(=O)(=O)c1ccccc1	2%
CCCCO	-4%&-2%
CCc1cc2c(=O)c(-c3nc4ccccc4n3C)c(C)oc2c(CN2CCN(C)CC2)c1O	68%
Cc1ccc(S(=O)(=O)N[C@@H](CC(C)C)C(=O)NCc2ccco2)cc1	-8%
O=C(c1cnccn1)N1CCC2(CCN(Cc3cc(C(F)(F)F)cc(C(F)(F)F)c3)CC2)CC1	9%
COc1ccc(C)cc1NC(=O)CN(c1ccc(F)cc1)S(C)(=O)=O	30%
COc1ccc(-n2nnnc2SCC(=O)N2CCCC2)cc1OC	9%
Cc1ccc(OCC(O)Cn2c(=N)n(CCN3CCOCC3)c3ccccc32)cc1 (centres undefined)	41%
CCN(CC)C(=O)CSC(=Nc1ccccc1F)NC#N	2%
CN(C(=O)c1ccc(NC(=O)c2cnccn2)cc1)C1CCCCC1	17%
CN(Cc1ccccc1)C(=O)CCNC(=O)Cn1cnc2ccccc2c1=O	12%
COCCCNC(=O)c1ccc2nc3ccccc3c(=O)n2c1	15%
O=C(Nc1ccc2c(c1)OCO2)C1CCCN1C(=O)Nc1cccc(F)c1 (centres undefined)	-7%
O=C(Nc1ccccc1)N1CCCC2(CCN(C(=O)c3csnn3)CC2)C1	-3%
O=C(CS(=O)(=O)Cc1ccccc1)NCc1ccc2c(c1)OCO2	9%
COc1ccc(-c2ccc(-c3noc(C4CCCCC4)n3)c(OC)n2)cc1	16%
O=C(O)c1ccccc1C(=O)N1CCN(c2cccc(Cl)c2)CC1	6%
CC1CC(C)CN(C(=O)c2cn(C)c3ccc(S(=O)(=O)N(C)C)cc3c2=O)C1 (centres undefined)	33%
COc1ccc2cc(C(=O)NCc3ccco3)c(=Nc3ccc(C(=O)O)cc3)oc2c1	-18%
COc1ccc(C2/C(=C(/O)c3ccc4c(c3)CC(C)O4)C(=O)C(=O)N2CCN2CCOCC2)cc1 (centres undefined)	29%
COC(=O)c1ccc(C2/C(=C(/O)c3ccc(OC(C)C)cc3)C(=O)C(=O)N2c2cc(C)on2)cc1 (centres undefined)	-2%
Cn1c(C(=O)N2CCN(c3ccccc3F)CC2)cc2c(=O)n(C)c3ccccc3c21	4µM*[single pt active]
O=C(NCc1ccc2c(c1)OCO2)c1ccc(CN2CCOCC2)cc1	8%
O=C(COc1cnc2ccccc2n1)NCCC1=CCCCC1	9%
Cc1cc(C)c2[nH]c(=O)c(C(c3nnnn3C(C)(C)C)N3CCN(C(=O)c4ccco4)CC3)cc2c1 (centres undefined)	116%
CN(C)Cc1ccccc1-c1ccc2ncnc(N3CCOCC3)c2c1	22%
Continued:
SMILES	AmpC nodet inh
CCOC(=O)c1cnn2c(C(F)(F)F)cc(-c3ccco3)nc12	25%
CN(C(=O)c1cnccn1)c1nnc(-c2cccnc2)s1	-2%
Cc1c(CN(C)CCc2ccccc2)c(=O)n(-c2ccccc2)n1C	-8%
O=C(c1ccc(CS(=O)(=O)c2ccccc2)o1)N1CCN(c2ncccn2)CC1	36%
OC(CNC1CCCCC1)CN1CCN(CC(O)CNC2CCCCC2)CC1 (centres undefined)	16%
Cc1noc(/C=C/N(C)C)c1S(=O)(=O)N1CCC(C(=O)O)CC1	14%
O=C(O)CC1NC(=O)N(c2ccccc2)C1=O (centres undefined)	-8%
Cn1c(=O)oc2cc(S(=O)(=O)N3CCCC(C(=O)Nc4ccc5c(c4)OCCO5)C3)ccc21 (centres undefined)	77%
Cc1nnc(NC(=O)CSc2nnc(Cc3cccn3C)n2-c2cccc(C(F)(F)F)c2)s1	113%
CN(Cc1ccco1)c1ncncc1-c1ccccc1C(F)(F)F	34%
N#CC1=C2SCN(c3ccccc3)CN2C(=O)CC1c1ccccc1Cl (centres undefined)	2.5µM*
CS(=O)(=O)c1nc(-c2ccco2)cc(C(F)(F)F)n1	-6%
O=C(CSc1ccc2nnc(-c3cccnc3)n2n1)NCc1ccc2c(c1)OCO2	3%
O=C(O)/C=C/C(=O)O	-7%
C=C(C)CC1Nc2ccccc2NC1CC(=C)C (centres undefined)	0%
N#CCCN1CCn2c1nc1ccccc12	-9%
Clc1ccc(CSc2nnc(-c3ccccn3)n2Cc2ccco2)c(Cl)c1	39%
COc1ccc(NC(=O)Nc2cc(C)ccc2OC)cc1	-18%
CCOc1cccc(=O)c2c(C)n(C)c(C)c12	-8%
C#C[C@]1(O)CC[C@H]2[C@H]3CCC4=Cc5oncc5C[C@]4(C)[C@@H]3CC[C@]21C	40%

A second format for some results above.
| molecule | AmpC nodet inh |
| --- | --- |
| N#CC1=C2SCN(c3ccccc3)CN2C(=O)CC1c1ccccc1Cl (centres undefined) | 2.5µM* |
| CS(=O)(=O)c1nc(-c2ccco2)cc(C(F)(F)F)n1 | -6% |

Further structures follow.
SMILES	AmpC nodet inh
COc1cccc(C2NC(=O)NC(C)=C2C(=O)Nc2ccc(C)cc2)c1 (centres undefined)	21%
O=C(NCc1ccco1)NC12CC3CC(CC(C3)C1)C2	-4%
CC1CCN(CC(O)COc2cccc(F)c2)CC1 (centres undefined)	2%
COc1ccc(NC(=O)C2CCCN2C(=O)OCc2ccccc2)c(OC)c1 (centres undefined)	24%
Cc1ccccc1Cc1c(C)nc2ncnn2c1C	1%
Fc1ccc([C@H]2CCNC[C@H]2COc2ccc3c(c2)OCO3)cc1	26%
O=C(Oc1ccc2c3c(c(=O)oc2c1)CCCC3)c1ccco1	2%
Nc1cccc2nsnc12	-1%[5.75 µM]
CCOCCCNC(=O)C(c1ccc(Cl)cc1)N1CCC2(CC1)OCCO2 (centres undefined)	70%
COC(=O)C1=C(C)NC(C)=C(C(=O)OC(C)C)[C@H]1c1cccc2nonc12	21%[12.8 µM]
O=C(Cc1cccs1)Nc1ccccc1C(=O)O	-4%
N#Cc1cccc(-c2nc3cnc(N4CCOCC4)nc3n(Cc3ccc(F)cc3)c2=O)c1	3%
C=CCn1c(SCc2c(C)noc2C)nc2cc(C(=O)O)ccc2c1=O	-7%
COc1ccc(C(c2sc3nc(C)nn3c2O)N2CCc3ccccc3C2)cc1 (centres undefined)	17%
O=C(CCn1nnc(-c2cccs2)n1)N1CCc2ccccc2C1	19%
COc1c(O[C@H]2O[C@@H](CO)[C@@H](O)[C@@H](O)[C@@H]2O)cc2c(c1OC)-c1ccc(SC)c(=O)cc1[C@H](NC(C)=O)CC2	-4%[12.8 µM]
CCCc1nc2ccccc2c(=O)n1NC(=O)c1c(O)c2cccc3c2n(c1=O)CCC3	-6%
CCOC(=O)C1CCN(C(=O)COc2cc(C)c(Br)cc2C)CC1	102%
COc1cc2c(cc1OC)C(C(=O)N1CCCCC1)C(c1ccccc1F)N(C)C2=O (centres undefined)	47%
c1cncc(CNc2ccnc(-c3ccc4c(c3)OCO4)n2)c1	12%
CCN(CC)c1ccc(CN(C(=O)c2ccco2)C2CCS(=O)(=O)C2)cc1 (centres undefined)	39%
CCC(C)NC(=O)c1ccccc1NC(=O)C(C)N(c1ccccc1)S(C)(=O)=O (centres undefined)	13%
CC(C)C(C(=O)NC(C)(C)C)N1C(=O)c2ccccc2C1=O (centres undefined)	6%
O=C(CCNc1n[nH]c(=O)[nH]c1=O)N1CCCCC1	-5%
Cc1ccc(Cn2nc(C)c(NC(=O)c3noc4c3CCCCC4)c2C)cc1	101%
O=C(Nc1ccc2c(c1)CCC2)C1CCCN(c2ncccn2)C1 (centres undefined)	16%
CC(NC(=O)c1cc(-c2cccs2)on1)c1ccccc1 (centres undefined)	-4%
CC1(C)Cc2nc(N)c(=O)sc2C1	-7%
O=C(CCCOc1ccc(Cl)cc1)N1CCCCC1	57%
Cc1cc(C)n(C2=NS(=O)(=O)c3ccccc32)n1	-16%
CN(C)Cc1ccccc1-c1cncnc1NCc1cccnc1	5%
CC1CCN(C(=O)CN2C(=O)C(=O)c3ccccc32)CC1	4µM*[single pt active]
CC(C)C(c1nnnn1Cc1cccs1)N1CCN(C2CCCC2)CC1 (centres undefined)	-19%
COc1ccccc1C(=O)N1CCN(c2nc3cc(C)c(C)cc3cc2C#N)CC1	114%
Cc1ccc(=O)n(C(C(=O)NCc2ccco2)C(=O)c2ccc(F)cc2)c1 (centres undefined)	14%
COc1cc(/C=N/n2c(SC)nnc(C(C)(C)C)c2=O)ccc1O	14%
CCC(=O)NC(Nc1cccc(C)n1)(C(F)(F)F)C(F)(F)F	-10%
Cc1ccc(CNC(=O)CCc2c(C)nc3ncnn3c2C)cc1	-1%
CCOC(=O)c1cnc(-n2nc(C)cc2C)nc1NC(C)c1ccccc1 (centres undefined)	113%
CCn1c(SCC(=O)NCc2ccc(F)cc2)nc2c(c1=O)SC(C)C2 (centres undefined)	22%
CCN1C(=O)CC(C(=O)O)SC1=Nc1ccc(OC)cc1 (centres undefined)	-11%
COCCn1c(=NC(=O)CSCC(=O)NC2CCCCC2)sc2cc(OC)ccc21	77%
CNc1ccccc1C(C)(C)c1cc(-c2ccco2)n[nH]1	15%
O=C(CN1C(=O)CSc2ncccc21)N1CCOCC1	-1%
O[C@]1(c2ccccc2)c2ccccc2NC2=NCCN21	-8%[5.75 µM]
CCOC(=O)c1c(C)n(C(=O)c2ccco2)c(=O)n1C(=O)c1ccco1	9%
C=CCN(c1ccccc1)S(=O)(=O)c1ccc2c(c1)oc(=O)n2C	28%
N=c1n(CC(=O)O)c2ccccc2n1Cc1ccccc1Cl	?
CCc1nnc(NC(=O)CSc2nnc(COc3cccc(C)c3)o2)s1	7%
CCOc1ccc(-c2nnn(CC(=O)NCc3ccco3)n2)cc1	18%
CCSc1nc(N)c2c3c(sc2n1)CN(C)CC3	-2%
CC(C)Cn1c(=O)c(C(=O)Nc2ccncc2)c(O)c2ccccc21	109%
Cc1cc(C(=O)O)cc(S(=O)(=O)N2CCOCC2)c1C	-8%

Some of the compounds tested. The share of hits here may be higher or lower than overall.
